# Compound activity as filed in PubChem.
# Mtb bLac sens – beta-lactam sensitization of Mtb H37Rv; M. tuberculosis H37Rv growth with meropenem, percent inhibition; hits of this screen are not shown here; inhibition, % at 25 µM; 330,000 tested, 0.27% active; AID 434955;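 active = about 74% or more and at least 40 points above the plate without the antibiotic, then above 30% in a dose series; inconclusive = first-round hits that could not be retested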;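 note: growth measured after seven days incubation then overnight dye step; 0% = bacteria only wells and 100% = bacteria with antibiotic; twin plates without the antibiotic show which effects depend on it; some results filed as inactive read as strong as hits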
# Arbovirus inh – arbovirus infection inhibition; 200,000 tested, 0.37% active; inhibition, % at 10 µM; arbovirus infection cell-based antiviral screen;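 active = inhibition from about 30%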;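 note: bluetongue infection of BSR cells; cell survival read as ATP light after 72 h; 0% = infected wells without compound and 100% = uninfected wells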
# YopH PTP inh – YopH (Yersinia) phosphatase inhibition. fluorescence Ex485/Em525. inhibition, %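 (about 10 µM by stock and volumes)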. 140,000 tested, 0.16% active;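 active = inhibition of 50% or more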;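 note: controls were vehicle for no effect and minimum signal wells for full effect; inactives centre near -20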
# Mtb growth – M. tuberculosis H37Rv growth inhibitors, H37Rv strain (AID 1626). 220,000 tested, 0.95% active. M. tuberculosis H37Rv growth inhibition; higher % means a stronger effect. inhibition, % at 10 µM; hits with a dose series show IC50 in µM;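 active = confirmed in a dose series; inconclusive = inhibition above 80% but not taken into the dose series; inactive = below 80% or under 30% at every dose of the series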;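 note: bacteria incubated seven days before Alamar blue readout; 0% = bacteria only wells and 100% = bacteria with antibiotic wells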
# RecA splice inh – Mtb RecA intein splicing inhibition; AID 2221; inhibition, %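 (about 9 µM by stock and volumes)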; P9WHJ3; cell-free RecA intein splicing, fluorescence; 290,000 tested, 0.75% active; in the data active = inhibition above about 30%; inconclusive = no clear call, values can overlap the other calls;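 note: 0% = vehicle wells and 100% = reference inhibitor control wells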
# Target sequence (P9WHJ3 whole entry, looked up, canonical isoform): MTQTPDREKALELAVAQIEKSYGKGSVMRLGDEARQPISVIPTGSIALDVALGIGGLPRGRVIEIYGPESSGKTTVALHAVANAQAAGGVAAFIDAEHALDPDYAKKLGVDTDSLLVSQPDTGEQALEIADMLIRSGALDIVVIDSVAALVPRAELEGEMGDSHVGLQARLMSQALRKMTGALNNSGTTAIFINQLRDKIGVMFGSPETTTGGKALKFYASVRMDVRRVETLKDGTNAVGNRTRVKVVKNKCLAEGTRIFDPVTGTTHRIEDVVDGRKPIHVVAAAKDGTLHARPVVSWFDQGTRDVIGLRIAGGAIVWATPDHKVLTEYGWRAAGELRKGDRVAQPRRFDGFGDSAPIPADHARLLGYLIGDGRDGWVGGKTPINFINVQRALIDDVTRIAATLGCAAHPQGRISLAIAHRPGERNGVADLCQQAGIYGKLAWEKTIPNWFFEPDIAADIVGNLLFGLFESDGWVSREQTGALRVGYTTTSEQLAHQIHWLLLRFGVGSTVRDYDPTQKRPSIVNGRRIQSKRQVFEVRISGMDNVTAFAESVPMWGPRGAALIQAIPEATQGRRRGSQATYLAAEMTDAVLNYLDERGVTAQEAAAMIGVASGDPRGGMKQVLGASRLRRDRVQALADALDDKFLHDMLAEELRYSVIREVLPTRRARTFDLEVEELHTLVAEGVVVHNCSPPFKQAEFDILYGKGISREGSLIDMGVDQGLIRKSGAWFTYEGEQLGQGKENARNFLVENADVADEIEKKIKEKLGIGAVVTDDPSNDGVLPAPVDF
# Arbovirus inh repeat – also measured in Arbovirus inh; calls as there; inhibition, %; measured here: 10K subset replicate screen; many hits read low in the repeat;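 first of two repeat runs on a subset; 0% = infected and 100% = uninfected wells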
# Numbers without * were called inactive; ? = inconclusive; nt = not tested or not shown.
SMILES,Mtb bLac sens,Arbovirus inh,YopH PTP inh,Mtb growth,RecA splice inh,others
Nc1ccc2c(c1)Oc1ccccc1C=C2,94,-5,nt,?,2.5,
CCOc1cccc2cc(C(=O)N3CCc4ccccc43)c(=O)oc12,-4,-3,-40,-1%,-0.2,
CN(C(=O)c1ccno1)c1nnc(-c2ccccn2)s1,-5,5,-19,-8%,-1.4,
CC(=O)N[C@@H](Cc1c[nH]c2ccccc12)C(=O)OCC(=O)Nc1ccc(Cl)c(S(=O)(=O)N(C)C)c1,6,3,nt,6%,-1.9,
c1ccc(-c2csc(N3CCSCC3)n2)cc1,-1,5,nt,4%,11,
CCOC(=O)CNC(=O)Cn1c(C)cc2ccccc2c1=O,-12,6,12,-15%,0.5,
COC(=O)c1cc(CSc2ncnc3sccc23)oc1C,1,nt,nt,nt,8.3,
CC(=O)C1=C(C)Nc2ncnn2C1c1ccc(Cl)cc1 (centres undefined),4,4,-34,-8%,0.6,
Cc1ccc(C)c(NC(=S)Nc2ccc(S(=O)(=O)Nc3ncccn3)cc2)c1,-2,5,-8,2%,1.1,
COc1ccc(-c2noc(C3CCCN(C(=O)c4ccccc4OC)C3)n2)cc1 (centres undefined),-2,nt,nt,nt,-0.9,
Cc1cc2c(cc1C)NC1=C(N2)OC(c2cccc(O)c2)C1=O (centres undefined),3,nt,nt,-10%,4.0,
O=C(CNC(=O)c1ccccc1)OCC(=O)c1ccccc1Cl,-9,nt,nt,nt,-2.1,
COCCCNC(=O)CC1C(=O)N(Cc2ccccc2)C(C)c2nc3ccccc3n21 (centres undefined),-1,6,nt,5%,-0.3,
O=C(COc1ccc([N+](=O)[O-])cc1)NCc1ccncc1,-6,3,nt,-4%,-1.8,
Cc1cc(NC(=O)CSc2nnc(-c3ccc4c(c3)OCCO4)o2)no1,99,-19,-11,1.5µM*,-5.6,
Cc1ccc(C(=O)N2CCN(c3ncnc4c(-c5ccccc5)nsc34)CC2)cc1,1,2,nt,-2%,17,
CCCCC(=O)Nc1nc(-c2ccc(S(=O)(=O)N3CCOCC3)cc2)cs1,-14,nt,nt,nt,0.9,
COCCCNc1nc2c(c(=O)[nH]c(=O)n2C)n1CC(O)COc1ccccc1 (centres undefined),-2,2,-25,-4%,-0.4,
COc1ccc(CC(=O)O/N=C(\N)Cc2cccc3ccccc23)cc1,-2,0,-6,11%,4.2,
COc1ccc2c(c1OC)C(=O)OC2N1C(=O)CC[C@H]1C(=O)NCC1CCCO1 (some centres undefined),-7,nt,nt,nt,-1.1,
Cc1nnc(SC(=O)N2c3ccccc3Sc3ccccc32)s1,60,-43,-18,-1%,17,
Nc1nc(-c2ccccc2)c(-c2ccccc2)o1,-12,nt,nt,1%,4.2,
CCOP(=O)(c1ccccc1)c1nc(-c2ccc(F)cc2)oc1N1CCCCC1 (centres undefined),4,-31,-39,4%,3.3,
CSc1ccc(Cn2nnc(C(=O)NCCc3ccc(Cl)cc3)c2N)cc1,3,nt,nt,3%,30,
Cc1cc(C)c2c(=O)n(CC(=O)NCCCN3CCN(c4ccccc4F)CC3)sc2n1,-3,-29,-23,nt,1.1,Arbovirus inh repeat=-21
COC(=O)CC/C(O)=C1\C(=O)CC(C)(C)CC1=Nc1ccccc1OC,4,-12,-22,-5%,0.1,
CCN(CC)c1ccc(/C=N\NC(=O)c2cccc3cc[nH]c23)cc1,-2,nt,nt,0%,-2.4,
CCCCOC(=O)NC(NCC(O)c1ccccc1)(C(F)(F)F)C(F)(F)F (centres undefined),4,-1,25,-6%,nt,
Cc1ccc(C(=O)Nc2cccc(-c3nc4ncccc4o3)c2)cc1,53,nt,nt,0%,-1.0,
c1ccc(-c2cnnc(N3CCOCC3)n2)cc1,-5,16,10,-5%,-2.6,
COc1ccc(NC(=O)CSc2ccc(-c3ccco3)nn2)c(OC)c1,-5,nt,nt,nt,1.4,
CC1CCCN(Cc2c(O)ccc3c(=O)c(-c4nc5ccccc5s4)c(N)oc23)C1 (centres undefined),100,-48,-39,?,-0.5,
CC(=O)NNC(=O)CCn1nnc(-c2ccc(Cl)cc2)n1,-7,3,nt,0%,0.5,
CCOc1ccccc1NC(=O)COC(=O)CC(C)(C)CC1=NS(=O)(=O)c2ccccc2N1,2,nt,nt,nt,-2.8,
O=C(O)CCn1c(Cc2ccccc2)nc2ccccc21,-1,nt,nt,nt,-3.7,
Cc1cc(NC(=O)CSc2nc3ccccc3s2)no1,13,4,3,2%,nt,
c1ccc(CC2CCCNC2)cc1 (centres undefined),0,1,nt,-11%,-1.7,
CCOC(=O)C1CCN(C(=S)Nc2ccc(C)cc2)CC1,-2,10,nt,4%,nt,
CCc1c(C)sc(NC(=O)c2cc(-c3ccc(O)cc3)on2)c1C#N,4,1,-13,4%,-1.6,
COc1cc(/C=N/NC(=O)CCN2CCN(Cc3ccccc3)CC2)cc(OC)c1OC,-4,6,-15,-2%,-2.5,
CCN1c2cccc3cccc(c23)S1(=O)=O,16,1,4,nt,-0.5,
Cn1c(=O)c(=O)n(C)c2cc(S(=O)(=O)N3CC(=O)N(CCc4ccccc4)C(=O)C3)ccc21,-3,nt,nt,11%,-3.5,
O=C(Nc1ccc(F)cc1)c1cncs1,0,nt,nt,nt,-0.9,
CC(C)CC(=O)NS(=O)(=O)c1ccc(N)cc1,-8,1,-21,-9%,nt,
COc1ccc(NC(=O)Cn2nc(C(F)(F)F)c3c2CCCC3)cc1OC,-6,-3,-11,-13%,1.8,
O=C(NCCc1ccccc1)C1CCN(C(=O)NCc2ccccc2)CC1,0,13,-28,-7%,0.8,
CCC(=NCCO)c1c(O)n(-c2ccc(Cl)cc2)c(=O)[nH]c1=O,10,10,-53,2%,4.2,
Cc1ccc(N(C)C(=O)Oc2cccc3ccc(C)nc23)cc1,34,14,-6,7%,-0.1,

# Ordered by formula weight (ascending): 13 of the compounds above
SMILES,Mtb bLac sens,Arbovirus inh,YopH PTP inh,Mtb growth,RecA splice inh,others
c1ccc(CC2CCCNC2)cc1 (centres undefined),0,1,nt,-11%,-1.7,
O=C(Nc1ccc(F)cc1)c1cncs1,0,nt,nt,nt,-0.9,
CCN1c2cccc3cccc(c23)S1(=O)=O,16,1,4,nt,-0.5,
CC(C)CC(=O)NS(=O)(=O)c1ccc(N)cc1,-8,1,-21,-9%,nt,
O=C(O)CCn1c(Cc2ccccc2)nc2ccccc21,-1,nt,nt,nt,-3.7,
Cc1cc(NC(=O)CSc2nc3ccccc3s2)no1,13,4,3,2%,nt,
CCOC(=O)C1CCN(C(=S)Nc2ccc(C)cc2)CC1,-2,10,nt,4%,nt,
CCC(=NCCO)c1c(O)n(-c2ccc(Cl)cc2)c(=O)[nH]c1=O,10,10,-53,2%,4.2,
CCc1c(C)sc(NC(=O)c2cc(-c3ccc(O)cc3)on2)c1C#N,4,1,-13,4%,-1.6,
O=C(NCCc1ccccc1)C1CCN(C(=O)NCc2ccccc2)CC1,0,13,-28,-7%,0.8,
COc1ccc(NC(=O)Cn2nc(C(F)(F)F)c3c2CCCC3)cc1OC,-6,-3,-11,-13%,1.8,
Cn1c(=O)c(=O)n(C)c2cc(S(=O)(=O)N3CC(=O)N(CCc4ccccc4)C(=O)C3)ccc21,-3,nt,nt,11%,-3.5,
CCOc1ccccc1NC(=O)COC(=O)CC(C)(C)CC1=NS(=O)(=O)c2ccccc2N1,2,nt,nt,nt,-2.8,

# Carrying on.
SMILES,Mtb bLac sens,Arbovirus inh,YopH PTP inh,Mtb growth,RecA splice inh,others
CC(=O)Cc1nsc(NC(=O)c2cc(-c3ccccc3Cl)oc2C)n1,1,13,-16,9%,-0.6,
COC(=O)CNC(=O)C1CCN(C(=O)OCc2ccccc2)CC1,-6,0,-40,-3%,1.1,
CC1CC(C)CN(CCCNC(=O)C2CCCN(c3ncnc4c3nc3n4CCCCC3)C2)C1 (centres undefined),-9,nt,nt,nt,-0.1,
Cc1ccc2nsnc2c1NC(=O)c1ccc([N+](=O)[O-])cc1,2,-3,nt,3%,0.0,
O=C(O)COc1c(-c2ccco2)oc2ccccc2c1=O,-3,-3,nt,-8%,-0.7,
C/C(Cn1nnc([N+](=O)[O-])n1)=N\NC(=O)c1ccncc1,99,-6,nt,?,-6.4,
O=[N+]([O-])c1ccc(N/N=C/c2ccc(OCc3cccc4ccccc34)cc2)nc1,12,-14,nt,16%,-6.2,
C#CCn1c(O)c(N=NC(=O)C(O)c2ccccc2)c2ccccc21 (centres undefined),-6,nt,nt,-9%,1.7,
COc1ccnc(Oc2ccc(C)cc2)c1C#N,8,-4,5,7%,-3.1,
COc1cc(C(=O)Nc2ccc(-c3nc4cc(C)ccc4o3)c(O)c2)cc(OC)c1OC,-4,27,-36,6%,-5.2,
COc1cc2cc(CN(CCCN3CCOCC3)C(=O)Nc3ccc(F)cc3)c(=O)[nH]c2cc1OC,-9,10,nt,3%,-7.5,
O=C(O)CCc1ccc(-c2ccccc2)n1-c1cccc(O)c1,4,1,-36,6%,2.4,
COc1cccc(S(=O)(=O)Nc2cccc(C(=O)N3CCCC3)c2)c1,-3,nt,nt,nt,-0.4,
O=C(CN1CCCc2ccccc21)N/N=C/c1ccccc1,-2,0,-12,1%,-5.4,
Cc1[nH]c2ccccc2c1C(=O)COC(=O)C(C)C,nt,-6,5,-2%,1.1,
COCCNC(=O)CN(C(=O)CCC(=O)Nc1cc(C)on1)c1ccc(C)cc1C,-10,11,-32,-9%,1.0,
CCOC(=O)c1ccc(-n2c(CCC(=O)O)ccc2-c2ccc(F)cc2)cc1,69,nt,nt,nt,4.0,
O=[N+]([O-])c1cc(Cl)ccc1-c1nc(-c2ccccc2)no1,1,11,-17,18%,2.9,
CC(=O)OCCNC(=O)c1cc2ccccc2oc1=O,-7,5,0,-7%,nt,
C[C@@H](C(=O)NCC1CC1)[C@H]1C[C@]1(C)[C@H](NC(=O)OCc1ccccc1)c1ccccc1,3,-10,-12,2%,9.9,
CCOC(=O)N1CCN(C(=O)c2ccc3c(=O)n(CCC4=CCCCC4)c(=S)[nH]c3c2)CC1,5,9,-30,3%,nt,Arbovirus inh repeat=3
O=C(CSc1ccccc1)Nc1ccncc1,0,5,-65,1%,-1.2,
Nc1cccc(-c2nc3ccc(C(=O)c4ccccc4)cc3[nH]2)c1,-4,nt,nt,nt,2.4,
CC1(C)NC(=O)N(CC(=O)OCC(=O)NC(=O)c2ccccc2)C1=O,-8,nt,nt,nt,2.2,
CCN1CCCC1CNC(=O)Cn1nc(C)n2c(cc3cc(C)ccc32)c1=O (centres undefined),4,nt,nt,nt,1.0,
COc1ccc(CN2CCNC(=O)C2CC(=O)N(C)CCC2CCOCC2)c(OC)c1 (centres undefined),3,nt,nt,nt,0.5,
CN([C@@H](C(=O)OC(C)(C)C)c1ccccc1)S(=O)(=O)c1cccc(S(=O)(=O)N(C)[C@@H](C(=O)OC(C)(C)C)c2ccccc2)c1,-5,nt,nt,nt,-1.5,
C=CCOC(=O)C1=C(C)NC(=O)NC1c1ccc2c(c1)OCO2 (centres undefined),-6,nt,nt,nt,2.2,
Cc1ccc(C(=O)OC2CCCN(C)C2)cc1 (centres undefined),-1,-2,nt,-8%,3.4,
COc1ccc(C(=O)n2nc(C)cc2C)cc1OC,1,-4,-119,0%,-3.7,
Cc1nc2c(s1)sc1ccccc12,-4,3,-34,4%,0.4,
COc1ccc(Cn2c(C)c(C)c(C#N)c2NC(=O)Nc2cccc(Cl)c2)cc1,-10,79*,-4,-14%,2.8,
COc1ccc(CC(=O)N2CCc3cc(OC)c(OC)cc3C2O)cc1OC (centres undefined),-8,nt,nt,-13%,1.1,
Cc1[nH]c2ccccc2c1C(=O)C(C)OC(=O)c1ccc(Cl)nc1 (centres undefined),-6,nt,nt,nt,1.7,
CC(=O)c1ccc(N=Nc2ccc(N)cc2)cc1,-2,nt,nt,0%,6.8,
CN(C)C(=O)c1cn(-c2ccccc2)nc1-c1cccc([N+](=O)[O-])c1,-4,0,nt,7%,-0.2,
CC(=O)c1cccc(NC(=O)C(C)N(C)CC(=O)Nc2ccc(Cl)cc2)c1 (centres undefined),-12,nt,nt,nt,1.3,
Cc1cc(C)c(C)c(S(=O)(=O)N2CCC(C(=O)Nc3ccc(S(=O)(=O)N4CCOCC4)cc3)CC2)c1C,14,nt,nt,nt,0.8,
CCOC(=O)C(C)NC(=O)Cn1ncc2c(=O)oc3ccc(C)cc3c21 (centres undefined),3,nt,nt,-1%,4.9,
CSc1ccccc1-c1nnc(-c2ccc(C)cc2)o1,95,7,-40,28%,4.6,

# The list is partial (hit frequency here may not be typical).
